gsp agonist: agonists of gsp mutant (McCune-Albright syndrome) | gsp mutant cells, cAMP HTRF, 30 min; control for the full effect not named in the record | Potency, µM (titrated, usually from 76.9 µM), for the others: top-dose activation (cAMP increase), usual class: activators | 340,000 compounds, 0.13% hits | AID 624287; active = well fitted activation curve with a large enough effect; inconclusive = small, poorly fitted or top-dose-only effect, or another doubt; inactive = no such curve, though single readings can be large or run the other way; cell line not stated here;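 further: phosphodiesterase inhibitor Ro 20-1724 added with compounds to block cAMP breakdown; potency means the concentration at half of the fitted maximal effect; nearly all actives have a fitted effect of over 60% in size; about a fifth of the inactives were tested at one dose only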
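Cells stably selected in G418 were plated at 2000/well, grown 16-24 hr, then given compounds in DMSO with the PDE inhibitor […] (300 uM solution added) for 30 min at 37C; cAMP was read by HTRF.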
gsp antagonist: gsp mutant antagonism; gsp-mutant cells, cAMP HTRF, 30 min; control for the full effect not named in the record; Potency, µM (top dose mostly 76.9 µM), for inactives: at the highest dose activity change, negative = inhibition, actives largely listed as inhibitors; 340,000 compounds, 0.4% hits; active = falling curve of any shape with a large fitted effect; inconclusive = falling curve, mostly with a smaller effect; inactive = flat or rising curve; cell line not stated here;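 further: intracellular cAMP measured with PDE inhibitor Ro 20-1724 present during compound exposure; potency means the concentration at half of the fitted maximal effect; on the % scale 0 is the no-effect control and ±100 the full control effect; nearly all actives have a fitted effect of over 65% in size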
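G418-selected cells were plated in DMEM/10% FBS for 16-24 h at 37C, then treated with compounds plus the PDE inhibitor […] (300 uM solution added) for 30 min at 37C. Intracellular cAMP was measured by HTRF after 30 min lysis at room temperature.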
TRPV1 potentiator: enhances activation of the human vanilloid receptor TRPV1; Q8NER1; TRPV1-expressing cells, Fluo-8 calcium influx, capsaicin EC20 potentiation; host cell line not named in the record; control for the full effect not named in the record; potentiation, % at 8.33 µM; 320,000 compounds, 0.02% hits; active means potentiation above 80%; inconclusive means 30% to 80%; inactive means below 30%; further: 0% is about no effect
Target sequence (Q8NER1 whole entry, looked up): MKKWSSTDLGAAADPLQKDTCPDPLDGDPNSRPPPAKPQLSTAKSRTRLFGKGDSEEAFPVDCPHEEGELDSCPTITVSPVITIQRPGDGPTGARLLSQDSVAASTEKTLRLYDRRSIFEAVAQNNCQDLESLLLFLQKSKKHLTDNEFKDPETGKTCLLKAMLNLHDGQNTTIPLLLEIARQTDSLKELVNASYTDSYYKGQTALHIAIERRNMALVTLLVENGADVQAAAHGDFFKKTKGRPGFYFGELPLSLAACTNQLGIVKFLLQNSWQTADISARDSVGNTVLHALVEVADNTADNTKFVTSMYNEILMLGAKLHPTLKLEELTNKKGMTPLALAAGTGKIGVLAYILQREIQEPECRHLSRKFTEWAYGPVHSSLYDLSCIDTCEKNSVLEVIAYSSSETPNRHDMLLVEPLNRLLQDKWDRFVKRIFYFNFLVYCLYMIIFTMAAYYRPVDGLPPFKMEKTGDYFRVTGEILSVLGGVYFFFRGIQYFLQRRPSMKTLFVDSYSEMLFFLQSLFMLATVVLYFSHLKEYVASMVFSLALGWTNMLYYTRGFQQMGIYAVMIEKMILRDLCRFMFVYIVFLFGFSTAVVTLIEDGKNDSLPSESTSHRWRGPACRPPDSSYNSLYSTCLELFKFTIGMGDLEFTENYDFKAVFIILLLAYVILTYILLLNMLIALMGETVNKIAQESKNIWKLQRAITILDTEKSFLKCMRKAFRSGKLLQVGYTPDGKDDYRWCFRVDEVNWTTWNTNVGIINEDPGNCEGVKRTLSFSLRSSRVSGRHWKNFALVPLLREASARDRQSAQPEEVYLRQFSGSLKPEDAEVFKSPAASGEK
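Fluo-8 calcium influx in TRPV1-expressing cells, kinetic read (ex 480/em 520 nm). Compound added and read 3 min for agonist activity, followed by capsaicin at EC20 final and 2 min further read for enhancement.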
Menin MLL FP FL: displaces fluorescein MLL peptide from human menin; Fluorescence polarization, fluorescein-MLL peptide displacement from menin; FP activity change, % at 61.4 µM; 290,000 tested, under 10 active; inconclusive = falling polarisation curve, or a change in total fluorescence; inactive = total fluorescence flat and polarisation flat or rising; no compound was filed as active; the % refers to the polarisation; negative = inhibition;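 further: % of control where 0% means no effect; inhibitors lower the polarisation; unlabelled MLL peptide was the positive control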
Sfp inh: inhibitors of Bacillus subtilis Sfp phosphopantetheinyl transferase. Potency, µM, inactives show max response, negative = inhibition, most hits filed as inhibitors. Biochemical Sfp PPTase activity, qHTS. Q9F4F7. 310,000 compounds, 3.5% hits; active means well fitted inhibition curve with a large enough effect; inconclusive means small, poorly fitted or top-dose-only effect, or another doubt; inactive means no such curve, though single readings can be large or run the other way;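 further: the enzyme is Sfp with the accession as filed and its product quenches rhodamine fluorescence; potency means the concentration at half of the fitted maximal effect; 0% = enzyme reaction without inhibitor and -100% = no enzyme wells; top concentration of the series not given in the record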
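Compounds were incubated with enzyme (final 15 nM) for 15 min at room temperature before substrate addition started the reaction. Fluorescence at 525 nm excitation, 598 nm emission was recorded immediately and after 30 minutes.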
ClpP mod: qHTS Assay for Activators of ClpP. ATP-dependent Clp protease proteolytic subunit (Bacillus subtilis (strain 168)), P80244. purified B. subtilis ClpP, FRET peptide cleavage, 20 min. Potency, µM (titrated, usually from 57.5 µM), inactives show at the highest dose activity change, negative = active. 340,000 compounds, 1.9% hits. AID 651965, 2013; active = well fitted falling curve with a large enough effect; inconclusive = small, poorly fitted or top-dose-only effect; inactive = no such curve, though single readings can be large or run the other way; further: potency means the concentration at half of the fitted maximal effect; the source files actives as falling curves though it sought activators and does not explain the sign; nearly all actives have a fitted effect of over 65% in size; many hits overshoot -100%
Target sequence (P80244 whole entry, looked up): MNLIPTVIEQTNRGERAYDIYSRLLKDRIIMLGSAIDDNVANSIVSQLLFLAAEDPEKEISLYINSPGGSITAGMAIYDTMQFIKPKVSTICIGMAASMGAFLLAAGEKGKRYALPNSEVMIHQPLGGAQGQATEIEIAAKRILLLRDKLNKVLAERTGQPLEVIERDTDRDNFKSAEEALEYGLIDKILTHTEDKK
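FRET quenching reversal measured ClpP activation: 10 microg/mL B. subtilis ClpP at pH 8 with the FRET-FV decapeptide, read at 430 nm after 320 nm excitation. The 20-min minus 0-min signal was scaled between DMSO/no-enzyme wells and ADEP (5.8 microM final).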
D2 potentiator: positive allosteric modulators of human D2 dopamine receptor. P14416. 360,000 compounds, 0.23% hits. DiscoveRx D2 beta-arrestin cells, luminescence, 90 min; 100% = 57 uM dopamine signal. potentiation, % (test concentration not listed); active = potentiation of 50% or more; inconclusive = 30% to 50%; inactive = 30% or less;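 further: compound concentration not given in the record; tested on top of an EC20 dose of dopamine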
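D2 cells co-treated with compound plus 50 nM dopamine (EC20) for 90 min at 37 deg C to detect potentiation. Beta-arrestin recruitment was read as enzyme-fragment luminescence after 1 h at ambient temperature. Full response was set by 57 uM dopamine.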
Active calls of the source: *; ? = inconclusive; · = not tested or not shown; [ ] = dose if it differs, or a comment.

SMILES | gsp agonist | gsp antagonist | TRPV1 potentiator | Menin MLL FP FL | Sfp inh | ClpP mod | D2 potentiator
N=C1C(c2nc3ccccc3s2)=C(O)CN1Cc1ccccc1 | 0.3% | 7.3% | 28.8 | 0.0 | -7.1% | 0.2% | -8.2
O=[N+]([O-])c1ccc2c(OCc3nnc(-c4ccccc4Br)o3)ncnc2c1 | -1.3%[15.4 µM] | -7.5% | -2.1 | -3.4 | -1.3% | · | 25.0
CCOc1cc(O)c(-c2[nH]ncc2-c2nc(C)cs2)cc1CC | ? | -8.2% | -1.2 | -1.1 | -16.6% | -7.9% | 1.2
O=c1cc(N2CCCCC2)c(-c2ccccc2)nn1Cc1c(Cl)cccc1Cl | -17.7% | -26.1% | 2.4 | 2.1 | ? | -6.0% | -10.3
Cc1ccc(S(=O)(=O)CCC(=O)NCCc2ccc(Cl)cc2)cc1 | 15.3% | 9.4% | -1.9 | -0.3 | 17.8% | -1.7% | -20.4
O=S(=O)(c1ccc(NCc2ccccc2)cc1)N1CCOCC1 | ? | 12.9% | -5.1 | · | -3.5% | -1.6% | 3.9
O=C(O)COc1ccc(-c2nccc(-c3ccccn3)n2)cc1 | 4.9%[15.4 µM] | 12.0% | -17.9 | 2.7 | ? | · | -5.6
Cc1ccc(S(=O)(=O)/N=C(/Nc2ccc3[nH]c(=O)[nH]c3c2)c2ccc(F)cc2)cc1 | -3.6% | 0.0% | ? | -1.3 | 19.7% | -4.3% | -21.2
COc1cc(C(=O)OC(C)CN2CCCC2)cc(OC)c1OC (stereo not given) | 16.6% | 7.7% | ? | 2.0 | 12.3% | -11.4% | -30.5
COC(=O)c1ccc(CSc2nc3ccc(Cl)cc3[nH]2)o1 | 12.2% | ? | 14.5 | 2.4 | 9.0% | -5.5% | 6.5
Cc1ccc2ccccc2c1Cn1c(-n2ccnc2)nc2c1c(=O)n(C)c(=O)n2C | 27.5% | -8.0% | -3.8 | 0.7 | 15.0% | 0.8% | -11.2
COC(=O)C1=C/C=C\CN(C(c2ccccc2)c2ccccc2)/C=C\1C(=O)OC | -37.6%[inhibitor] | · | · | · | · | 2.2% | -3.5
O=C(CSc1n[nH]c(=O)n1C1CC1)Nc1ccc(Cl)c(Cl)c1 | -8.4%[15.4 µM] | -4.8% | 4.8 | 0.9 | -13.1% | · | -8.8
Cc1ccc2ncnc(-c3ccccc3)c2c1 | 10.6%[15.4 µM] | 3.3% | 3.1 | 0.3 | 9.1% | -1.0% | -1.3
CC(C)(C)CN1CCNC(=O)C1CC(=O)NC1Cc2ccccc2C1 (stereo not given) | ? | 4.1% | 1.4 | -4.4 | 12.2% | -8.0% | -1.2
Cc1ccc(S(=O)(=O)N2CCC(C(=O)OC3CCOC3=O)CC2)cc1C (stereo not given) | -7.4% | -2.0% | 0.9 | · | · | -1.2% | -2.2
CC(NS(=O)(=O)c1ccc(OCC(=O)N2CCOCC2)cc1)c1ccccc1 (stereo not given) | ? | 2.4% | -1.2 | 0.8 | 23.4% | -2.2% | 9.8
O=C(c1ccc(Cn2c(=S)[nH]c3cc4c(cc3c2=O)OCO4)cc1)N1CCN(c2ncccn2)CC1 | · | · | -9.2 | 1.3 | 7.6% | · | ·
O=C(CC1Sc2ccccc2NC1=O)Nc1cccnc1 (stereo not given) | 20.2% | 6.5% | -6.0 | 7.3 | 1.4% | · | 0.1
COc1ccc(CN2CCCCC2C(=O)Nc2ccc(OC)c(OC)c2)cc1OC (stereo not given) | 2.1% | -7.6% | 4.0 | 1.4 | 7.9% | 0.1% | -2.1
CCC1CCCCN1CCCNC(=O)c1ccc(CS(=O)(=O)c2ccccc2C)o1 (stereo not given) | -54.9%[inhibitor] | 21.2% | 13.1 | 1.9 | 19.8% | -3.0% | -4.9
CC(=O)Nc1cc[n+](C(C)C(=O)c2ccccc2)cc1 (stereo not given) | -7.5% | 5.0% | -13.7 | 1.3 | 10.1% | 0.4% | -4.8
CCc1cccc(NC(=O)COC(=O)C2CCN(c3ccc(C(F)(F)F)cn3)CC2)c1 | -16.3% | -1.8% | 7.5 | · | · | -27.7% | -3.7
O=C(CN(Cc1ccco1)S(=O)(=O)c1ccccc1)N/N=C/c1ccccc1C(=O)O | -22.9%[15.4 µM] | -7.0% | 23.5 | -2.2 | 13.5% | · | -5.8
O=C(c1ccccc1NS(=O)(=O)c1ccc(F)cc1)N1CCCCC1 | 3.4% | 8.6% | 11.5 | -1.3 | 4.2% | 0.9% | -9.3
Cc1ccc(S(=O)(=O)Nc2ccc(S(=O)(=O)Nc3nccs3)cc2)cc1C | -25.7% | 2.7% | · | · | · | · | -3.0
O=C(CN1C(=O)NC2(CCOc3ccccc32)C1=O)NCC(F)(F)F (stereo not given) | -4.8% | 4.5% | 15.3 | 5.8 | 24.5% | · | -2.7
COc1ccc(NC(=O)[C@H](C)NC(N)=O)cc1S(=O)(=O)Nc1cc(C)ccc1Br | -15.2%[15.4 µM] | -7.7% | 1.9 | 0.5 | 3.4% | 64.1% | -4.7
CCNC(=S)N1CCC(C(N)=O)CC1 | ? | 1.4% | 8.9 | 3.0 | 25.1% | -0.4% | 0.0
CCOC(=O)CSc1nc2c(c(=O)[nH]c(=O)n2C)n1CCCc1ccccc1 | 2.6% | -13.3% | -10.8 | 0.9 | 17.9% | 0.0% | -3.5

3 entries from above, arranged by their value in D2 potentiator, smallest number first.
smiles,gsp agonist,gsp antagonist,Menin MLL FP FL,Sfp inh,D2 potentiator
O=c1cc(N2CCCCC2)c(-c2ccccc2)nn1Cc1c(Cl)cccc1Cl,-17.7%,-26.1%,2.1,?,-10.3
CCOC(=O)CSc1nc2c(c(=O)[nH]c(=O)n2C)n1CCCc1ccccc1,2.6%,-13.3%,0.9,17.9%,-3.5
CC(NS(=O)(=O)c1ccc(OCC(=O)N2CCOCC2)cc1)c1ccccc1 (stereo not given),?,2.4%,0.8,23.4%,9.8

(cont.)
SMILES | gsp agonist | gsp antagonist | TRPV1 potentiator | Menin MLL FP FL | Sfp inh | ClpP mod | D2 potentiator
CCOC(=O)c1ccc(N2C(=O)CC(Sc3ncccn3)C2=O)cc1 (stereo not given) | -22.2% | 1.3% | -2.5 | -0.5 | -19.7% | 0.5% | 8.0
FC(F)(F)Oc1ccc(-c2cn3cccnc3n2)cc1 | -0.2% | -1.5% | -28.4 | 2.2 | 11.5% | 3.7% | -8.7
COc1ccc(C(=O)NCCC2=CCCCC2)cc1OC | -44.0%[inhibitor] | 7.1% | -3.6 | -2.7 | -3.2% | -1.4% | -17.6
COc1ccc(-c2noc(C3CCCN(C(=O)c4cccs4)C3)n2)cc1 (stereo not given) | -8.3% | ? | ? | -1.9 | -0.1% | -0.3% | -1.9
CC(=O)Nc1cccc(OCC(=O)NS(=O)(=O)c2ccc(C)cc2)c1 | -3.7% | 8.2% | -2.3 | 0.7 | 5.1% | 1.0% | -9.2
N#Cc1ccc(Oc2nc(Nc3ccc(F)cc3)nc(N3CCCC3)n2)cc1 | -1.7% | 7.2% | -2.3 | -2.0 | -8.9% | -1.8% | -7.1
COc1ccc(S(=O)(=O)N2CCOC23CCN(C(=O)c2ccc(Cl)cc2Cl)CC3)cc1 | -37.7%[inhibitor] | ? | 0.4 | · | 8.6% | 1.1% | -2.3
Cc1cccc(N2CCN(C(=O)c3ccc4nc(-c5ccco5)c(-c5ccco5)nc4c3)CC2C)c1 (stereo not given) | 0.0% | -25.0% | -2.0 | 1.3 | -17.6% | -1.4% | -1.7
COc1ccc([N+](=O)[O-])cc1NC(=O)C(C)OC(=O)C1c2ccccc2Oc2ccccc21 (stereo not given) | -52.2%[inhibitor] | -18.1% | -14.4 | 5.9 | -0.8% | -1.9% | -18.7
C=CCn1c2ccccc2c2nnc(SCC(=O)Nc3cc(C)on3)nc21 | 5.4% | 7.2% | 0.5 | 2.4 | 5.4% | 0.7% | -9.0
O/C(=C\c1nc2ccccc2nc1/C=C(\O)c1ccccc1)c1ccccc1 | 26.4% | 0.1% | -9.2 | ? | 39.8µM* | -21.6% | -56.6
CCC(C(=O)NC(C)CCc1ccccc1)n1nc(C)n2c(cc3occc32)c1=O (stereo not given) | 4.2% | -12.0% | -7.4 | 4.1 | 1.9% | -2.6% | -2.5
CCN(CC)CCNC(=O)c1[nH]c2ccc(OCc3ccccc3)cc2c1C | -5.8% | 14.8% | 8.9 | -5.9 | ? | ? | -28.2
CC/C(=N\Nc1ccc([N+](=O)[O-])cc1)c1ccccc1 | 29.0% | -4.6% | -2.0 | 3.0 | -15.3% | -1.1% | -0.9
CC(=O)n1c(-c2ccccc2)c(CO)c2ccccc21 | -22.0% | 6.6% | -8.7 | 0.1 | 15.8% | 27.2% | -6.5

In the list so far, these have a COOH group.
SMILES | gsp agonist | gsp antagonist | TRPV1 potentiator | Menin MLL FP FL | Sfp inh | ClpP mod | D2 potentiator
O=C(O)COc1ccc(-c2nccc(-c3ccccn3)n2)cc1 | 4.9%[15.4 µM] | 12.0% | -17.9 | 2.7 | ? | · | -5.6
O=C(CN(Cc1ccco1)S(=O)(=O)c1ccccc1)N/N=C/c1ccccc1C(=O)O | -22.9%[15.4 µM] | -7.0% | 23.5 | -2.2 | 13.5% | · | -5.8

Further results.
SMILES | gsp agonist | gsp antagonist | TRPV1 potentiator | Menin MLL FP FL | Sfp inh | ClpP mod | D2 potentiator
CCOC(=O)N/N=C\c1ccc([N+](=O)[O-])s1 | -4.4%[15.4 µM] | 9.9% | 19.9 | -2.4 | -19.4% | · | -6.3
Cc1csc(N(C)C(=O)CSc2nnc(COc3cccc4ccccc34)o2)n1 | -25.0% | -11.3% | 3.0 | 3.5 | 0.9% | 0.0% | -4.3
Cc1cc(=O)n2nc(N3CCC(C(=O)NCc4ccco4)CC3)sc2n1 | ? | 7.1% | -15.9 | · | 9.2% | -3.4% | -13.0
Cc1c(O)c(CN2CCCC2)cc2c3c(c(=O)oc12)CCC3 | ? | 5.1% | 17.6 | ? | -14.2% | ? | -14.9
CCSc1nnc(SCC(=O)c2c(N)n(C)c(=O)n(C)c2=O)s1 | 0.9%[15.4 µM] | -2.3% | 1.5 | · | · | · | -1.8
Cc1cc(C)n2nc(C(=O)Nc3ccccc3N3CCOCC3)nc2n1 | · | · | 2.6 | -1.2 | 10.2% | · | ·
COc1ccc2c(c1)c(/C=C/c1cc[n+](C)cc1)cn2C | -30.2%[inhibitor] | ? | 23.9 | ? | -7.0% | -2.6% | -30.8

Bioassay records as filed in PubChem.
